Source: PubChem BioAssay
AID504770 – E. coli YBA685 growth inhibition, screen for V. cholerae RctB inhibitors; E. coli YBA685 rctB-dependent plasmid, OD600 growth, 3 h; stronger effect = lower value; z-score (test concentration not listed); actives 0.27% (n = 130,000); AID 504770;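 active = z-score under -2 on both plates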;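 note: wells of about 30 µL received 100 nL stock; score is relative to mean and SD of the test wells; the first replicate is given; strong numbers were not always called active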
CapD inh – blocks the Bacillus anthracis CapD enzyme | z-score (concentration not given with the values) | actives 0.23% (n = 140,000) | AID 492967 | purified CapD enzyme, fluorescence intensity read-out; stronger effect = lower value; some hits fall short of the stated cut;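 active = z-score under -4 in either of two replicates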;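 note: stock transfer was 100 nL into about 40 µL; score is relative to mean and spread of the plate; one replicate is shown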
Numbers without * were called inactive; · = not tested or not shown.

SMILES | AID504770 | CapD inh
Cc1ccc(NC(=O)c2sc(=S)n(-c3ccc(C)c(C)c3)c2N)cc1 | · | -0.61
COC(=O)Nc1ccc(S(=O)(=O)N2CCC(C(=O)Nc3cccc(OC)c3)CC2)cc1 | · | -0.24
CC(C)Cn1c(SCC(=O)N2CCc3ccccc32)nc2ccccc2c1=O | 0.3 | ·
CCCc1nc2ccccc2c2c1C(=O)N(NC(=O)c1cscc1OC)C2=O | · | 0.71
O=S(=O)(Nc1ccc2c(c1)N(S(=O)(=O)c1cccc(C(F)(F)F)c1)CC2)c1cccc(C(F)(F)F)c1 | · | -0.48
CCOC(=O)c1ccccc1NC(=O)CN(c1ccc(OC)c(OC)c1)S(=O)(=O)c1ccc(C)cc1 | · | 0.15
CN1CCN(CCN2C(=O)c3ccccc3C2=O)CC1 | -0.7 | ·
CCOC(=O)c1c(C)n(C)c2c1cc(OC(=O)c1ccc(Br)cc1)c1ccccc12 | · | -0.13
CC(Oc1ccc(F)cc1)c1nnc(SCC(N)=O)n1C (stereo unspecified) | 1.4 | -0.06
c1ccc2c(CSc3nc4ccccc4o3)cccc2c1 | 0.8 | -0.18
C=C1N(c2nc(C)cc(C)n2)C(=O)OC1(C)C | -0.35 | 0.78
Cc1ccc2c(c1)C(c1ccc(F)cc1)=NCC(=O)N2 | -0.5 | 2
Cc1cc(C)c(OC(=O)/C=C/c2cccs2)c(C)c1 | 0 | -1.8
O=P(c1ccccc1)(c1ccccc1)C1CCCO1 (stereo unspecified) | -0.75 | -0.2
Cc1c2cnn(CC(=O)O)c(=O)c2c(C)n1Cc1ccccc1 | -1.2 | 1.4
CC/C(C)=N/NC(=O)c1cccc(S(=O)(=O)N(CC)CC)c1 | 0.95 | ·
NCCSCc1ccccc1 | -0.8 | ·
CC1CCCCN1C(=O)c1ccc2c(=O)n3c(nc2c1)CCCCC3 (stereo unspecified) | 0 | 0.35
COc1ccc(C(Cc2cnc3ccccc3n2)Oc2nc(OC)cc(OC)n2)cc1 (stereo unspecified) | · | -0.65
Cn1c(=NC(=O)CSCC(=O)N2CCCC2)sc2ccccc21 | -0.6 | -0.85
COC(=O)c1scc(S(=O)(=O)c2ccccc2)c1N | · | 41
COc1ccc(C)cc1NC(=O)c1sc2ncn(CC(=O)Nc3cccc(C(F)(F)F)c3)c(=O)c2c1C | · | 0.34
O=C1Nc2ccccc2C12Nc1ccccc1CO2 (stereo unspecified) | -0.6 | ·
O=C(C1CC1)N1CCC(C(O)(c2ccccc2)c2ccccc2)CC1 | 1.6 | ·
Cc1ccc(F)cc1Nc1nnc(-c2cc3c(ccc4ccccc43)oc2=O)s1 | · | 0.11
Further entries.
SMILES | AID504770 | CapD inh
c1ccc(-c2cnc(CSc3ncn[nH]3)o2)cc1 | -0.8 | ·
CCSc1nnc(NC(=O)CSc2nnc(CNC(=O)c3ccco3)n2-c2ccc(F)cc2)s1 | · | -0.48
O=C(Nc1ccccc1)N(CCc1ccncc1)C1CCCCC1 | 0.25 | 0.38
Cc1nn(-c2ccccc2)c2sc(C(=O)Nc3cccnc3)cc12 | 0 | ·
CCOc1ccc(NC(=O)C2=C(C)NC(=O)NC2c2ccc(OC)cc2OC)cc1 (stereo unspecified) | · | -0.33
COc1ccc(C2=N/C(=C\c3ccc(OC(C)=O)c(OC)c3)C(=O)O2)cc1Br | · | 1.3
O=C(CSc1nnc(Cc2ccccc2)n1Cc1ccco1)NC1CCCC1 | -0.6 | ·
COC(=O)c1sccc1NCc1ccccc1 | 0.1 | 40
COC(=O)c1sccc1-c1ccc(/C=N/OC(=O)c2cccs2)o1 | -1.4 | 76
CCCCCNc1nc2ccccc2nc1NS(=O)(=O)c1cccs1 | -0.4 | ·
CCSc1nnc(CSc2nc(C)cc(C)n2)n1-c1ccccc1 | -0.6 | ·
CC1CCN(S(=O)(=O)c2ccc(C(=O)NCc3ccco3)cc2)CC1 | -0.3 | 0.68
CC(=O)OC1C(OC(=O)c2ccc(C)cc2)C(COC(=O)c2ccc(C)cc2)OC1n1cc(I)c(=O)[nH]c1=O (stereo unspecified) | · | 0.63
Cc1ccc(N(CC(=O)NCc2cccs2)S(=O)(=O)c2cccs2)cc1 | -1.8 | 0.82
O=C(OCc1ccc(Cl)c(Cl)c1)c1ccccn1 | -0.35 | -0.28
COc1ccc(N(CC(=O)N2CCN(c3ccc(Cl)cc3)CC2)S(=O)(=O)c2c(C)noc2C)cc1 | -0.15 | 0.11
COc1cc(-c2nc3ccccc3c(=O)n2NC(=O)/C=C/c2cccc(Cl)c2)cc(OC)c1OC | · | -0.93
CC(C)N(Cc1ccccc1)C(=O)C1=CCN(S(=O)(=O)c2ccccc2)CC1 | 0.75 | 0.51
O=C(COc1ccc(S(=O)(=O)NC2CCCC2)cc1)N1CCCCC1 | -1.1 | 0.28
COc1ccc(N2C(=O)C(N3C(=O)c4c(Cl)c(Cl)c(Cl)c(Cl)c4C3=O)C2c2cccs2)cc1Cl (stereo unspecified) | · | -0.095
FC(F)(F)c1ccc(C2NCCc3sccc32)cc1 (stereo unspecified) | -0.7 | 0.41
O=C1NC(=S)N/C1=C\c1cc(Br)ccc1OCc1ccc([N+](=O)[O-])cc1 | · | 0.38
CN1CCC(NCCc2ccccc2)CC1 | 0.1 | ·
CCOC(=O)N1CC=C2C(C#N)=C(N)C(C#N)(C#N)C(c3ccc(OC)c(OC)c3)C2C1 (stereo unspecified) | · | -0.015
O=C(CSc1n[nH]c(-c2cccs2)n1)c1ccc(Cl)cc1 | -0.55 | 0.8
Carrying on.
SMILES | AID504770 | CapD inh
Nc1nnc(-c2cn(-c3ccccc3)nc2-c2ccc(Cl)cc2)o1 | -0.15 | 0.24
CCCCN(CC)C(=O)c1cc2c(=O)n3ccccc3nc2n1C | -0.6 | 113
COC(OC)c1ccc(C#N)c(SCC(=O)c2ccc(Cl)cc2)n1 | -1.3 | -1.3
COc1ccc(C(=O)CSc2nn3c(SCC(=O)c4ccc(OC)cc4)nnc3s2)cc1 | 0.85 | -0.3
CN1C/C(=C/c2ccc(O)cc2)C(=O)/C(=C/c2ccc(O)cc2)C1 | 0.05 | ·
O=C(NC(=S)NCc1ccccc1)C1CCCC1 | 0 | -0.21
CN(Cc1ccccc1)c1nc(-c2ccccc2)cc(C(F)(F)F)n1 | · | 0.015
CC(=O)Nc1ccc(S(=O)(=O)N(Cc2cccc(C(F)(F)F)c2)Cc2ccco2)cc1 | · | 0.01
CN(C)S(=O)(=O)c1ccc2c3c(cccc13)C(=O)N2 | 0.15 | 19
Cc1cc(C)cc(N2C(=O)c3ccccc3NC2c2ccc(Cl)cc2)c1 (stereo unspecified) | -0.3 | 37
O=C(O)Cc1ccc2sc(-c3ccccc3)nc2c1 | -1.8 | 7
O=c1/c(=C/c2ccco2)sc2nc(-c3ccc(Cl)cc3)nn12 | · | -0.22
CCOC(=O)C1=C(N)n2c(s/c(=C/c3ccc4c(c3)OCO4)c2=O)=C(C(=O)OCC)C1c1ccc2c(c1)OCO2 (stereo unspecified) | · | -0.39
Cc1ccc(C(C)(C)CC(=O)O)cc1 | -0.55 | ·
COc1ccc(-c2nnc(SCc3nc4ccccc4[nH]3)n2-c2ccccc2)cc1OC | · | 5.8
O=C(NNS(=O)(=O)c1ccc(F)cc1)C1CC(c2cccnc2)=NO1 (stereo unspecified) | · | -0.06
Cc1c(C(=O)O/N=C/c2ccc(Cl)cc2Cl)sc2cc(C(C)(C)C)sc12 | · | -0.71
O=C(NCCn1ccc2ccccc21)c1ccc(Cl)cc1Cl | 0.25 | -0.24
CCn1c(=O)n(CC)c2cc(NC=O)c(Br)cc21 | -0.1 | 0.51
COc1ccc(N/C(N)=N/c2nc(CSc3nc4ccccc4s3)cc(=O)[nH]2)cc1 | 1.9 | -0.28
CC(CNC(=O)c1cc2oc3ccccc3c2n1C)c1ccccc1 (stereo unspecified) | -0.75 | 27
O=C(NCCOC12CC3CC(CC(C3)C1)C2)c1nc(-c2cccnc2)no1 | -0.9 | -0.29
Cc1nc2sc(C)c(C)c2c(=O)o1 | · | -0.72
CCCNC(=O)NCc1cc(C)n(-c2ccc(Cl)cc2)c1C | 0.1 | 0.2
C=CC[n+]1c(C)csc1Nc1ccc(C)cc1 | 0.35 | -0.3
Further entries follow:
SMILES | AID504770 | CapD inh
CCc1ccc(CN(C)C(C)C(=O)Nc2ccc(NC(C)=O)cc2)cc1 (stereo unspecified) | 0.05 | ·
Cc1ccc(N2C(=O)/C(=C3/C(=O)N(C)c4ccccc43)SC2=S)cc1 | 1.1 | 0.33
COC(=O)c1ccc2c(c1)N(C)C(=O)/C(=C/c1ccccc1OC)S2 | -0.05 | 17
CC(NC(=O)C(c1ccccc1)N1Cc2ccccc2C1=O)c1ccc2c(c1)OCCO2 (stereo unspecified) | -0.45 | -0.65
CCc1c(-c2ccccc2)nc2nc(C)c(C)nn12 | -2.3 | -1.2
NC(=O)c1ccc(NC(=O)CN2CC(=O)Nc3ccccc32)cc1 | -0.75 | ·
CCOC(=O)c1c(Nc2ccc(C)cc2)n[nH]c1N | 0.05 | -0.98
O=C(N/N=C/c1ccccc1Cl)c1ccccc1CO | · | -0.34
Cc1cc2nc3n(c2cc1C)CCCN3 | -1.5 | ·
Cc1nnsc1C(=O)NNc1ccc(C(C)C)cc1 | -0.5 | -0.42
CCn1c(N2CCN(C(=O)Nc3ccc(Cl)c(C(F)(F)F)c3)CC2)nc2ccccc21 | -0.05 | ·
Cc1oc2ccc(O)c(CN3CCN(C)CC3)c2c1C(=O)OCC(C)C | -0.15 | 0.09
COc1cc(OC)cc(C(=O)NC(C(=O)N2CCC2)C(C)C)c1 (stereo unspecified) | 0 | ·
O=C(NC1CC1)C1CCN(C(=O)c2cnn(-c3ccccc3)c2-n2cccc2)CC1 | -0.05 | -0.14
CC(C)NC(=S)NC(=O)c1ccco1 | 2.5 | ·
O=C(NC1CCCCC1)/C(=N\O)c1ccccn1 | -0.7 | ·
O=C(c1cccs1)N1N=C(c2ccc(Br)cc2)CC1c1cccc([N+](=O)[O-])c1 (stereo unspecified) | · | -0.09
O/C(=C/Sc1nnc(Cc2ccccc2)o1)c1ccc(F)cc1 | -0.3 | 0.1
CCOC(CSc1nnc2c3ccccc3n(CC)c2n1)OCC | 0.45 | ·
Cc1ccc(S(=O)(=O)Nc2ccc3oc4c(c3c2)CCCC4)cc1 | · | -0.94
COc1ccccc1N1CCN(C(=O)CSc2nc(C)c(C)c(=O)[nH]2)CC1 | -0.1 | -0.62
OCCN(Cc1ccccc1)Cc1cccc(C(F)(F)F)c1 | -0.75 | -0.085
CN(Cc1nc2ccccc2c(=O)[nH]1)C(=O)c1cn(-c2ccccc2)nc1-c1cccs1 | 0.55 | ·
COC(=O)C1C(=O)NC(SC)=C(C#N)C1c1ccccc1C (stereo unspecified) | 2.4 | -0.4
CCC1CCCCN1C(=O)c1cc(-c2cccs2)on1 (stereo unspecified) | -0.1 | -0.64
Next entries.
SMILES | AID504770 | CapD inh
O=C(/C=C/c1c(Cl)nc2sccn12)OCc1ccco1 | -1 | ·
CCOc1ccc(OCC(=O)O)cc1 | -0.4 | -0.3
Cc1ccccc1N1CCN(S(=O)(=O)c2cccs2)CC1 | 0.85 | -0.44
CC(=NCc1ccc(Cl)c(Cl)c1)c1ccccc1O | 0.5 | -0.21
O=C(Cc1c(F)cccc1Cl)NCC(=O)N1CCN(c2ccccc2)CC1 | · | 0.27
CC[N+]1=C(Nc2c(C)cccc2C)SCC1 | 0.15 | 0.33
N#C[C@@H]1C[C@@](C#N)(C(=O)c2ccccc2)[C@H]2C=Cc3ccccc3N12 | -1.5 | 2
O=C(CN(C(=O)c1ccc(Cl)nc1)c1ccc2c(c1)OCCO2)NCc1ccco1 | -0.4 | ·
Cc1c(Cl)cn2c(=O)cc(CN3CCN(C(=O)c4ccco4)CC3)nc2c1Cl | -0.65 | ·
Cc1csc(NC(=O)C2CC2)n1 | -0.65 | -2.3
Cc1ccc(N2CCN(S(=O)(=O)c3cccc(C)c3)CC2C)cc1 (stereo unspecified) | · | 0.07
CCc1ccc(N2CC(c3nc4ccccc4n3CC)CC2=O)cc1 (stereo unspecified) | -0.15 | ·
CCOC(=O)C(=O)N1c2ccc(C)cc2-c2c(ssc2=S)C1(C)C | · | -0.78
CCn1cnc2c(oc3ccccc32)c1=O | 1 | -0.77
CC(=O)c1cccc(NC(=O)c2cc(-c3ccccc3)nc3ccccc23)c1 | · | -1.1

No enrichment for hits; any-hit rate near 0.39%.
